High-throughput results deposited in PubChem BioAssay by several laboratories.
CSC inhib – blocks cancer stem cells; AID 2717; cancer stem cell-like cells viability, luminescence; inhibition, % at 7.5 µM; hit rate 1.1% among 300,000;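 active means mean at 75% or more and at least half the replicates too; inconclusive means mean and replicates disagree; tested in HMLE shEcad cells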;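 further: 0% = median of negative and 100% = median of positive control wells; the first replicate is given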
Env fusion inh – blocks HIV Env-driven cell-cell fusion; HeLa-JRFL Env/CEM21 cell fusion, luciferase; inhibition, % at 12.3 µM; hit rate 1.1% among 360,000; AID 651610;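 active means mean replicate inhibition score of at least 50 and every replicate individually at or above 50; inconclusive means only one of the two criteria met; inactive means mean below 50 and not all replicates reaching 50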;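 further: 0% = plate neutral controls and 100% = maraviroc near 300 nM; one replicate is shown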
eIF4H FP inh – inhibitors of RNA binding by human eIF4H | inhibition, % at 35 µM | Q15056 | hit rate 0.94% among 290,000 | AID 2012 | eIF4H fluorescence polarization binding assay;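 active means 50% or more with normal probe brightness, or confirmed in later tests; inconclusive means above 50% with abnormal brightness, or retests that disagree; inactive means below 50% or failed in later tests; about a fifth of its hits are not listed in these tables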;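 further: calls also rest on retests at 20 µM and on dose response follow-up; 0% = protein and probe with vehicle and 100% = probe without protein; strong numbers were not always called active; many hits fall short of the cut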
MT1-MMP act inh – MT1-MMP (human) activation inhibition. P50281. HT1080 RFP-PRO-GFP cells, GFP/RFP ratio fluorescence, overnight; percent of plate control window, DMSO zero. GFP/RFP ratio change, % at 20 µM. hit rate 0.061% among 360,000. AID 651647;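 active means GFP/RFP ratio change of at least 30% with cell ATP level not reduced by more than half and red fluorescence within 50% of control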; further: strong numbers were not always called active
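Compound: 20 µM single dose, 1% DMSO / System: HT1080 RFP-PRO-GFP cells / Controls: DMSO and RFP-L50D-GFP cell wells / Read-out basis: GFP/RFP fluorescence ratio / Schedule: overnight compound exposure at 37 °C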
Rce1 inhib – inhibitors of yeast Ras-converting enzyme. Q03530. calls only. hit rate 0.27% among 290,000. yeast membranes, quenched prenylated peptide cleavage fluorescence;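 active means fall in fluorescence gain of 50% or more versus controls, with final raw signal at or below 3038400; inconclusive means same 50% fall but final raw signal above 3038400; inactive means fall in fluorescence gain under 50%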;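 further: plate controls were neutral control wells for no effect and wells lacking membranes for full effect; tested at 10 µM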
Yeast UUG start – yeast start codon fidelity modulation. S. cerevisiae UUG-firefly luciferase reporter, luminescence/redox ratio. activity score, % at 18.7 µM. AID 602363. hit rate 0.13% among 350,000;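 active means replicate mean at a twofold rise or more, about +100% in these data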;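 further: firefly luciferase made from a UUG start codon reports start codon fidelity; reporter light over untreated wells divided by growth signal over untreated wells; some hits fall short of that in this replicate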
PABP FP inh – blocks human PABP binding to poly(A) RNA; P11940; fluorescence polarization; inhibition, % at 35 µM; hit rate 1% among 290,000;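 active means 50% or more with normal probe brightness, or confirmed in later tests; inconclusive means above 50% with abnormal brightness, or retests that disagree; inactive means below 50% or failed in later tests; about a fifth of its hits are not listed in these tables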;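 further: calls also rest on retests at 20 µM and on dose response follow-up; controls were probe without protein and protein plus probe with vehicle; some compounds called inactive have numbers as strong as hits; many hits fall short of the cut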
Target sequence (P11940 whole entry, looked up): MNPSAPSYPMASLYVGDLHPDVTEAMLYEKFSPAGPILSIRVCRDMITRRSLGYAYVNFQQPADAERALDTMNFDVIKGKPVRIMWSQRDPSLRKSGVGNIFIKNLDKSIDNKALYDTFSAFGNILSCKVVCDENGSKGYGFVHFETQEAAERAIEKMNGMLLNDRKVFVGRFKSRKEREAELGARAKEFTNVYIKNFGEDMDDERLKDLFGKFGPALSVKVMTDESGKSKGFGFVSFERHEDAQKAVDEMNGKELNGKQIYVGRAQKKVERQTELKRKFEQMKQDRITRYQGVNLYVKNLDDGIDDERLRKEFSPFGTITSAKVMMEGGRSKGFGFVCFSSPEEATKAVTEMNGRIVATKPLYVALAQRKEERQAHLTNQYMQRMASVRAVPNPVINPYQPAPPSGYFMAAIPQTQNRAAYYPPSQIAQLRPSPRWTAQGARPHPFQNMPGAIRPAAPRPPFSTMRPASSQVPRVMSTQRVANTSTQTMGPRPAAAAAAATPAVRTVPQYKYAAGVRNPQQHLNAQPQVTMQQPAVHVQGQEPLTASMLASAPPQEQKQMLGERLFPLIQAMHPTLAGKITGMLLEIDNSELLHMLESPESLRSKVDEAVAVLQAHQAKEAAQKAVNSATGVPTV
eIF4H FP inh retest – second read-out of eIF4H FP inh, no call of its own (marks repeat the call); inhibition, %; compound at 20 µM; confirmation average;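 mean of two retest wells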
PABP FP inh retest – second read-out of PABP FP inh, no call of its own (marks repeat the call); inhibition, %; compound at 20 µM; confirmation repeats;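 mean of two retest wells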
MT1-MMP act inh RFP – further read-out of MT1-MMP act inh, marked with its call; RFP signal change, %; measured here: RFP expression control read;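 0 = vehicle wells; hits needed this value within 50% of zero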
* = called active by the depositor; i = inactive; ? = inconclusive; · = no result given; & = joins results of further samples.

SMILES | CSC inhib | Env fusion inh | eIF4H FP inh | MT1-MMP act inh | MT1-MMP act inh RFP | Rce1 inhib | Yeast UUG start | PABP FP inh | others
Cc1ccc(-n2nnnc2SCC(=O)Nc2ccccc2-c2ccccc2)cc1C | -27 | 11 | 7 | 0 | 0 | i | · | 7
c1cn2c(Nc3ccc4c(c3)OCCO4)c(-c3ccc(N4CCOCC4)cc3)nc2cn1 | · | 9 | 1 | 3 | 2 | i | · | 8
CCc1cc(C(=O)N2CCN(c3ncc(C(F)(F)F)cc3Cl)CC2)sc1C | 63 | 34 | 65 | -1 | -6 | i | 1 | 2 | eIF4H FP inh retest=-4;PABP FP inh retest=10
O=C(NCC(c1cccs1)N1CCOCC1)c1cccnc1 (stereo not drawn) | -11 | · | -12 | -2 | 1 | i | -7 | -10
CNC(=S)N/N=C/c1ccc(-c2cccc(C(=O)O)c2)o1 | 15 | 7 | -6 | -2 | 4 | i | · | 7
O=C(O)C1CCCN1c1nc(C(F)(F)F)nc2ccccc12 (stereo not drawn) | -2 | -10 | -7 | -2 | -2 | i | · | -10
O=C(O)C1C2C=CC(C2)C1C(=O)NCc1ccccc1 (stereo not drawn) | -18 | -9 | · | 2 | 4 | i | -19 | ·
Oc1ccc(-c2n[nH]c(=S)n2Cc2ccco2)cc1 | -12 | -57 | -3 | · | · | i | -31 | -7
COC(=O)c1ccc(-n2nnnc2SCc2ccccc2OC)cc1 | -24 | · | 2 | -2 | -5 | · | -9 | 6
Cc1ccccc1Nc1nc(N)nc(COC(=O)c2ccc(S(=O)(=O)N(C)C)cc2)n1 | · | · | 11 | 8 | 3 | i | · | -5
Cc1ccc2cc3cc(C(=O)N4CCCCC4C)oc3nc2c1 (stereo not drawn) | 31 | -321 | -2 | 4 | 1 | i | -12 | -9
CC(C)n1c(=O)[nH]c2cc(C(=O)Nc3ccccc3)ccc21 | -20 | -22 | 0 | 4 | -1 | i | -10 | -1
O=C(O)c1ccccc1Sc1ncnc2sc3c(c12)CCC3 | -12 | 1 | 1 | -1 | 0 | i | -16 | 11
CCN(CC)CCN(Cc1cc2cc3c(cc2[nH]c1=O)OCCO3)C(=S)NCCCOC | -3 | -5 | 2 | -5 | 0 | i | -11 | 8
CN1C(=O)c2cccc(NCCCN3C(=O)c4ccccc4C3=O)c2C1=O | -4 | · | 66* | -43 | -3 | i | -19 | 94*
Cc1cc(NC(=O)C2C3C(=O)N(c4cccnc4)C(C(=O)NC(C)(C)C)C34C=CC2(C)O4)no1 (stereo not drawn) | -5 | -4 | 0 | 3 | 5 | i | -14 | 6
Cc1cc(C)c(C#N)c(SCSCc2ccccc2)n1 | 3 | · | -5 | -1 | 1 | i | -12 | 7
Cc1cc(C(=O)N2CCC(Cc3ccccc3)CC2)c(C)o1 | -14 | 30 | 1 | -2 | 5 | i | 7 | 5
CCN(CC)C(=O)CSc1nnc(-n2nc(C)cc2C)c2ccccc12 | -5 | -77 | -4 | 0 | -3 | i | 4 | 3
COc1cc(Oc2nc(C(F)(F)F)nc3ccccc23)ccc1C=O | -5 | 6 | -1 | 0 | -7 | i | · | -3
COc1ccc(CCNC(=O)C2CCCN(C(=O)N(C)C)C2)c(OC)c1 (stereo not drawn) | -7 | · | 3 | -8 | -4 | i | -12 | -2
O=C(NCCC1=CCCCC1)C1CC(=O)N(C2CCCCC2)C1 (stereo not drawn) | 17 | · | -8 | 1 | 4 | i | -24 | -12
CCOC(=O)Cn1nc(C)c(NC(=O)c2ccc([N+](=O)[O-])c(C)c2)c1C | -9 | 0 | 1 | -1 | 0 | i | · | -2
CN(Cc1ccccc1)C(=O)c1[nH]cnc1C(=O)Nc1ccc(Cl)cc1 | -8 | ? | · | 2 | -13 | · | -8 | ·
COC(=O)c1cc2c(s1)CS(=O)C2 (stereo not drawn) | 5 | -86 | -6 | -1 | 6 | i | -16 | 9
SMILES | CSC inhib | Env fusion inh | eIF4H FP inh | MT1-MMP act inh | MT1-MMP act inh RFP | Rce1 inhib | Yeast UUG start | PABP FP inh | others
Cc1ccc(NC(=O)c2ccccc2NC(=O)c2cccnc2)cc1 | -2 | -1 | -5 | -2 | -1 | i | -10 | -9
COc1cc(NC(=O)CCC(=O)N2CCN(S(=O)(=O)c3ccc(C)cc3)CC2)cc(OC)c1 | · | 16 | · | 1 | 0 | · | 4 | ·
CCS(=O)(=O)c1ccc(O)c(NC(=O)c2cc(-c3ccccn3)nc3ccccc23)c1 | -7 | 2 | · | 0 | 2 | · | -8 | ·
CC(=O)NCc1cc(-c2nn(C)c(=O)c3ccccc23)ccc1C | -16 | -58 | -9 | 4 | 2 | i | · | -4
O=C(c1cc(F)c(F)cc1Cl)N1CCCc2ccccc21 | 18 | -14 | -10 | -5 | -1 | i | 8 | 3
Cc1cc(S(=O)(=O)Nc2nc(CN3CCOCC3)nc3sc4c(c23)CCCC4)ccc1F | 13 | · | 2 | 6 | 6 | i | 0 | 4
C[C@H]1CN([C@@H](C)CO)C(=O)CCCn2nncc2CO[C@@H]1CN(C)Cc1ccc(Oc2ccccc2)cc1 | · | 10 | · | 5 | 6 | · | -21&-1 | ·
COc1ccc(NC(=O)CCS(=O)(=O)c2ccc3c(c2)CCCN3C(C)=O)cc1Cl | -13 | 11 | 12 | 3 | 4 | i | 8 | 4
O=C(Nc1cccc2ncccc12)c1ccccc1F | -1 | -10 | -2 | 0 | -2 | i | -4 | 6
Cc1ccc(CN2CC(C(=O)Nc3ccc4c(C)cc(=O)oc4c3)CC2=O)cc1 (stereo not drawn) | 1 | -4 | 17 | 10 | 0 | i | 12 | 8
COc1cccc(C(=O)CN2CCN(S(=O)(=O)c3cccc([N+](=O)[O-])c3)CC2)c1 | · | 8 | 2 | -2 | 3 | i | · | -8
CCC(CO)NCc1ccc(OCC(=O)Nc2cccc(C(F)(F)F)c2)c(OC)c1 (stereo not drawn) | -1 | -4 | 2 | 7 | 3 | i | · | -4
CCOc1ccc(NC(=O)CCNS(=O)(=O)c2ccc3c(c2)CC(C)N3C(C)=O)cc1 (stereo not drawn) | -14 | -3 | 2 | -3 | -3 | i | -10 | 4
CN(Cc1nc2ccc(Cl)cc2[nH]1)Cc1nc(-c2cnccn2)no1 | -12 | -1 | 60 | -1 | 1 | i | · | -2 | eIF4H FP inh retest=-3;PABP FP inh retest=3
CCN(CCn1cccn1)C(=O)CCc1nnc(-c2ccc3c(c2)OCO3)o1 | -9 | 3 | 0 | 1 | 3 | i | · | -14
CCOC(=O)N1CCN(C(=O)c2ccc3c(=O)n(Cc4ccc(OC)cc4)c(=S)[nH]c3c2)CC1 | -8 | · | -2 | 7 | -3 | · | 5 | 6
Cc1ccccc1NC(=O)N(CCc1nc2ccccc2[nH]1)Cc1ccccc1 | -3 | · | -10 | 3 | 0 | · | -7 | -12
Cc1cc2cccc(C)c2nc1SCC(=O)N(C)c1nc(-c2ccccc2)cs1 | -8 | 20 | 2 | -1 | 4 | i | -4 | 1
COC(=O)C1NN=C(C(=O)c2ccccc2)C1c1ccccc1 (stereo not drawn) | -6 | -101 | -6 | -6 | -1 | i | -8 | -6
Cc1ccc(C)c(-c2nnc(NC(=O)Cc3ccccc3)o2)c1 | 27 | -5 | -7 | 8 | 6 | i | -20 | 6
O=C(CCSc1nccn1Cc1ccccc1)N1CCOCC1 | 0 | 11 | -7 | -48 | -23 | i | · | 6
COc1ccc(OC)c(S(=O)(=O)NC(=O)C2(C)CCN2C(=O)Cc2ccccc2)c1 (stereo not drawn) | · | 2 | · | 1 | 9 | · | -8 | ·
C[C@@H]1NC(=O)[C@@]2(C)[C@@H](c3ccccc3)[C@H]3COc4ccccc4[C@@H]3N2C1=O | -13 | 1 | · | -1 | -1 | · | -10 | ·
CCCC(=O)Nc1ccc(C(=O)NNC(=O)c2cccs2)cc1 | -5 | · | 0 | 9 | 2 | i | 9 | -7
Cc1cc(C)n(C(=O)c2ccc(C)c(S(=O)(=O)N3CCOCC3)c2)n1 | -8 | · | -4 | 1 | 2 | i | 10 | -4
SMILES | CSC inhib | Env fusion inh | eIF4H FP inh | MT1-MMP act inh | MT1-MMP act inh RFP | Rce1 inhib | Yeast UUG start | PABP FP inh | others
Cc1sc2ncnc(N3CCC(C(=O)Nc4cc(Cl)ccc4Cl)CC3)c2c1C | 29 | 13 | · | -3 | -3 | · | -19 | ·
Cc1sc(N)nc1-c1ccc(Oc2ccccc2)cc1 | 15 | -11 | -9 | -3 | -15 | i | 0 | -4
O=c1oc2ccccc2c(NCc2cccc(F)c2)c1[N+](=O)[O-] | -1 | -3 | -3 | 0 | -5 | i | -26 | -5
Cc1noc(C)c1S(=O)(=O)N(CC(=O)Nc1ccc2c(c1)OCCO2)c1ccc(C(C)C)cc1 | 21 | 1 | -7 | -11 | -20 | i | -6 | -2
CC(CCc1ccccc1)NC(=O)COC(=O)c1ccc(F)cc1 (stereo not drawn) | 2 | -8 | -2 | -3 | -5 | i | -16 | 3
O=c1cc(CN2CCOCC2)c2ccc(O)c(O)c2o1 | 4 | -5 | -4 | 3 | 2 | i | -6 | 1
CCOc1ncccc1C(=O)Nc1ccc(C)c(S(=O)(=O)N2CCCCCC2)c1 | · | 5 | · | 5 | -24 | · | -17 | ·
Cc1ccccc1-n1nc2c(c1NC(=O)CC(C)C)CS(=O)C2 (stereo not drawn) | -9 | -15 | · | 3 | 6 | i | -19 | ·
Cc1nc(C)c(C(=O)Nc2ccccc2)s1 | 0 | · | -8 | 0 | 0 | i | -48 | 3
COc1ccc(NC(=O)CN(C)C(=O)c2n[nH]c3ccccc23)cc1 | · | -6 | · | 9 | -5 | i | -28 | ·
CCOC(=O)c1c(C)[nH]c(C(=O)COC(=O)c2ccc(O)cc2)c1C | · | 23 | 7 | -9 | -1 | i | -14 | 3
O=C(Nc1ccccc1C(=O)N1CCOCC1)c1cccnc1 | -10 | -20 | 3 | 5 | 3 | i | -20 | -1
O=C(O)CN1C(=O)COc2ccc(S(=O)(=O)N3CCCCCC3)cc21 | -6 | -8 | -6 | 4 | 5 | i | 2 | 4

Seven entries out of the list, arranged by molar mass, ascending.
SMILES | CSC inhib | Env fusion inh | eIF4H FP inh | MT1-MMP act inh | MT1-MMP act inh RFP | Rce1 inhib | Yeast UUG start | PABP FP inh | others
Cc1sc(N)nc1-c1ccc(Oc2ccccc2)cc1 | 15 | -11 | -9 | -3 | -15 | i | 0 | -4
CC(CCc1ccccc1)NC(=O)COC(=O)c1ccc(F)cc1 (stereo not drawn) | 2 | -8 | -2 | -3 | -5 | i | -16 | 3
Cc1ccccc1-n1nc2c(c1NC(=O)CC(C)C)CS(=O)C2 (stereo not drawn) | -9 | -15 | · | 3 | 6 | i | -19 | ·
COc1ccc(NC(=O)CN(C)C(=O)c2n[nH]c3ccccc23)cc1 | · | -6 | · | 9 | -5 | i | -28 | ·
O=C(O)CN1C(=O)COc2ccc(S(=O)(=O)N3CCCCCC3)cc21 | -6 | -8 | -6 | 4 | 5 | i | 2 | 4
CCOc1ncccc1C(=O)Nc1ccc(C)c(S(=O)(=O)N2CCCCCC2)c1 | · | 5 | · | 5 | -24 | · | -17 | ·
Cc1noc(C)c1S(=O)(=O)N(CC(=O)Nc1ccc2c(c1)OCCO2)c1ccc(C(C)C)cc1 | 21 | 1 | -7 | -11 | -20 | i | -6 | -2
